Bioassay records: PubChem BioAssay, National Center for Advancing Translational Sciences (NCATS)
Sfp inh: inhibitors of Bacillus subtilis Sfp phosphopantetheinyl transferase | Q9F4F7 | Biochemical Sfp PPTase activity, qHTS | Potency, µM, for inactives: max response, negative = inhibition, actives largely listed as inhibitors | 310,000 compounds, 3.5% hits | AID 1490; active = well fitted inhibition curve with a large enough effect; inconclusive = small, poorly fitted or top-dose-only effect, or another doubt; inactive = no such curve, though single readings can be large or run the other way;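 note: the enzyme is Sfp with the accession as filed and its product quenches rhodamine fluorescence; potency is the fitted concentration of half-maximal effect; 0% = enzyme reaction without inhibitor and -100% = no enzyme wells; top concentration of the series not given in the record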
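Sfp 15 nM + cpd, 15 min RT; start w/ rhodamine-CoA 5 uM, BHQ-2-YbbR 12.5 uM (final); 50 mM Hepes pH 7.6, 10 mM MgCl2, 0.01% NP-40, 0.01% BSA; read 525/598 nm at 0 and 30 min.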
Menin MLL FP FL: inhibitors of human menin-MLL interaction, wild-type MLL peptide | Fluorescence polarization, fluorescein-MLL peptide displacement from menin | FP activity change, % at 61.4 µM | 290,000 tested, under 10 active | AID 1766; inconclusive = falling polarisation curve, or a change in total fluorescence; inactive = total fluorescence flat and polarisation flat or rising; no compound was filed as active; the % refers to the polarisation; negative = inhibition;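 note: % of control where 0% means no effect; inhibitors lower the polarisation; unlabelled MLL peptide was the positive control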
TRPV1 potentiator: human TRPV1 potentiation; 320,000 compounds, 0.02% hits; Q8NER1; potentiation, % at 8.33 µM; TRPV1-expressing cells, Fluo-8 calcium influx, capsaicin EC20 potentiation; host cell line not named in the record; control for the full effect not named in the record; active means potentiation above 80%; inconclusive means 30% to 80%; inactive means below 30%; note: 0% is about no effect
Target sequence (Q8NER1 whole entry, looked up): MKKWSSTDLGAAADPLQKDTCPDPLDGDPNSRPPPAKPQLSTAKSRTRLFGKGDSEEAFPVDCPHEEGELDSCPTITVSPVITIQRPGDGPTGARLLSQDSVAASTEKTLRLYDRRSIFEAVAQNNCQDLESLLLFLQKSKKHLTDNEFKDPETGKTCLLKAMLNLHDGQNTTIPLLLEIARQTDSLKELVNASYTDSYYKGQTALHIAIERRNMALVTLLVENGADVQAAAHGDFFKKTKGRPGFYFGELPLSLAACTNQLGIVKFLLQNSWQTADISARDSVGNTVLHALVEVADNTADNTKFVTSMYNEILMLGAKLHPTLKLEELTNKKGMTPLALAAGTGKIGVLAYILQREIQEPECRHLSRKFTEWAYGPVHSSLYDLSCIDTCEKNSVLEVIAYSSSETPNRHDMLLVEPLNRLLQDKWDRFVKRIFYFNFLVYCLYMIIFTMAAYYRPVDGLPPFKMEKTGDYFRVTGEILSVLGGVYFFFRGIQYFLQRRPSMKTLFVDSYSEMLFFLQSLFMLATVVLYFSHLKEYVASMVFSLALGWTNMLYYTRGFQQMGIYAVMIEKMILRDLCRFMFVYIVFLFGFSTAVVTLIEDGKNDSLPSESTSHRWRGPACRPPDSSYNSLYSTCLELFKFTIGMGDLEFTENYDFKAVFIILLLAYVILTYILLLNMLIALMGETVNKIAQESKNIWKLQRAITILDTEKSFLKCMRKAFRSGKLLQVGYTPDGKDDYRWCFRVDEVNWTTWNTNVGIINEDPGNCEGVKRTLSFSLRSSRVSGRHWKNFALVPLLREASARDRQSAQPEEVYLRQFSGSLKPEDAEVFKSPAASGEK
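Cells expressing TRPV1 were dye-loaded with Fluo-8 and read kinetically: 10 s baseline, 3 min after compound (agonist portion), then 2 min after EC20 capsaicin (allosteric enhancer portion). Calcium-bound dye fluorescence at 480/520 nm.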
gsp antagonist: antagonizes gsp, the McCune-Albright syndrome mutation; 340,000 compounds, 0.4% hits; Potency, µM (series often up to 76.9 µM), inactives show top-dose activity change, negative = inhibition, most hits filed as inhibitors; gsp-mutant cells, cAMP HTRF, 30 min; control for the full effect not named in the record; active = falling curve of any shape with a large fitted effect; inconclusive = falling curve, mostly with a smaller effect; inactive = flat or rising curve; cell line not stated here;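 note: intracellular cAMP measured with PDE inhibitor Ro 20-1724 present during compound exposure; potency is the fitted concentration of half-maximal effect; % is set by controls: 0 for no effect and ±100 for the full control effect; nearly all actives have a fitted effect of over 65% in size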
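HTRF cAMP read-out (cAMP-d2 plus anti-cAMP antibody-K in lysis buffer, 30 min RT). Before lysis, cells are exposed to compounds with […] for 30 min at 37C in DPBS containing Ca/Mg, BSA and Tween 20.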
ClpP mod: qHTS Assay for Activators of ClpP. ATP-dependent Clp protease proteolytic subunit (Bacillus subtilis (strain 168)), P80244. purified B. subtilis ClpP, FRET peptide cleavage, 20 min. Potency, µM (titrated, usually from 57.5 µM), inactives show at the top dose activity change, negative = active. 340,000 compounds, 1.9% hits; active = well fitted falling curve with a large enough effect; inconclusive = small, poorly fitted or top-dose-only effect; inactive = no such curve, though single readings can be large or run the other way; note: potency is the fitted concentration of half-maximal effect; the source files actives as falling curves though it sought activators and does not explain the sign; nearly all actives have a fitted effect of over 65% in size; many hits overshoot -100%
Target sequence (P80244 whole entry, looked up): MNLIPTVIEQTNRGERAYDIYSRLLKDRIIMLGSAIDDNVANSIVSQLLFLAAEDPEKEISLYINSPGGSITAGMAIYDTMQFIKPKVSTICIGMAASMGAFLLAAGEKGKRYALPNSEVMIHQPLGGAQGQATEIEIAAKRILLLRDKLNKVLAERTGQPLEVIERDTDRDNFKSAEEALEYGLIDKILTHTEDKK
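Buffer: 100 mM Tris/HCl pH8, 100 mM KCl, 0.05% low protease BSA, 2.5% glycerol, 0.01% Tween-20. ClpP 10 microg/mL final; 20 min RT; delta FRET normalized to ADEP and DMSO controls.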
gsp agonist: activates gsp, the McCune-Albright syndrome mutation | gsp mutant cells, cAMP HTRF, 30 min; control for the full effect not named in the record | Potency, µM (highest dose often 76.9 µM), without a hit: top-dose activation (cAMP increase), usual class: activators | 340,000 compounds, 0.13% hits; active = well fitted activation curve with a large enough effect; inconclusive = small, poorly fitted or top-dose-only effect, or another doubt; inactive = no such curve, though single readings can be large or run the other way; cell line not stated here;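 note: phosphodiesterase inhibitor Ro 20-1724 added with compounds to block cAMP breakdown; potency is the fitted concentration of half-maximal effect; nearly all actives have a fitted effect of over 60% in size; about a fifth of the inactives were tested at one dose only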
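Cells in DMEM/10% FBS with G418 were pretreated with compounds in DMSO plus […] (300 uM stock) for 30 min at 37C. cAMP was measured by HTRF (cAMP-d2 plus anti-cAMP antibody-K) after 30 min at room temperature.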
D2 PAM: potentiates the human D2 dopamine receptor allosterically; 360,000 compounds, 0.23% hits; DiscoveRx D2 beta-arrestin cells, luminescence, 90 min; 100% = 57 uM dopamine signal; potentiation, % (no concentration beside the values); P14416; AID 624464; active = potentiation of 50% or more; inconclusive = 30% to 50%; inactive = 30% or less;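 note: compound concentration not given in the record; tested on top of an EC20 dose of dopamine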
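PathHunter beta-arrestin assay in DiscoveRx D2 cells. Compounds were added with an EC20 of dopamine (50 nM final) for 90 min at 37 deg C. Luminescence was read 1 h after detection reagent, with 57 uM dopamine as the EC100 control.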
The depositor's hits bear a star; ? = inconclusive; · = no result given; [ ] = dose if it differs, or a comment.

SMILES	Sfp inh	Menin MLL FP FL	TRPV1 potentiator	gsp antagonist	ClpP mod	gsp agonist	D2 PAM
COc1c(Cl)cc(Cl)cc1C(=O)Nc1ccc(NC(=O)c2cccs2)cc1	10%	1.2	2	-15%	203%	?	-21
CCOc1ccc2nc(SCC(=O)N3c4ccccc4Sc4ccccc43)sc2c1	-3%	9.1	1	8%	-14%	-6%	-4
NC(=O)CC(NC(=O)c1cccc(Br)c1)c1ccc(N2CCN(c3ccccn3)CC2)c([N+](=O)[O-])c1 (stereo not given)	3%	1.1	14	-14%	2.4%	·	-17
CCOCc1nnc(NC(=O)C2CCN(C(=O)c3ccco3)CC2)s1	2%	-0.3	-1	-4%	-0.8%	12%[15.4 µM]	0
Cn1c(=O)c(C(=O)NCc2ccccc2)c(O)c2ccccc21	9%	0.0	11	-3%	-4.3%	-3%[15.4 µM]	0
COc1ccc(/C=C2\NC(=S)N(CC3CCCO3)C2=O)c(OC)c1C (stereo not given)	-18%	1.5	-13	-24%	-0.1%	-18%	-12
COc1ccccc1NS(=O)(=O)c1cc(N/C(=N/S(=O)(=O)c2ccccc2)c2ccc(F)cc2)ccc1Cl	·	·	·	·	-8.6%	-21%	-10
CC1Cc2ccccc2N1CC(=O)NCc1ccc2c(c1)OCO2 (stereo not given)	23%	2.3	3	5%	0.5%	9%	5
COc1ccc(S(=O)(=O)Nc2ccc(NC(C)=O)cc2)cc1OC	7%	3.8	·	0%	-0.7%	2%	0
O=[N+]([O-])c1c(NCCO)cc(N2CCC3(CC2)OCCO3)c2nonc12	-16%	2.1	15	-7%	-2.0%	2%	-3
CC(C)(C)C1=NN(c2ccc([N+](=O)[O-])cc2)C(c2ccccc2)C1 (stereo not given)	12%	-0.8	-4	7%	·	2%	-8
CCC1C(=O)Nc2nc(-c3ccccc3)c(-c3ccccc3)n2N=C1C (stereo not given)	5%	2.5	7	-12%	-2.0%	?	-7
CCOc1ccc(NC(=S)N2c3ccccc3CC2C)cc1 (stereo not given)	?	-1.9	-15	8%	0.7%	1%	-5
Cc1ccc(OCc2nnc(SCC(=O)c3cccs3)n2-c2ccccc2)cc1C	5%	6.0	-3	-29%	-1.9%	4%	-9
Cc1ccc(S(=O)(=O)CCC(=O)OCC(=O)NNC(=O)c2ccc([N+](=O)[O-])cc2)cc1	·	·	1	-2%	-1.5%	3%	-6
CSc1cccc(NC(=O)CCc2ccccc2)c1	13%	0.3	-6	-1%	·	-7%[15.4 µM]	-6
CCN(CC(=O)NCc1cccs1)C(=O)COc1ccc(C(C)=O)cc1	·	·	15	-2%	-1.2%	-12%	0
O=C(O)c1ccccc1-n1c(-c2ccccc2)cc2c1CCCC2=O	10%	3.3	8	13%	·	26%	-3
CC(NCC1(N2CCOCC2)CCCCC1)C(=O)Nc1ccc(Cl)cc1Cl (stereo not given)	56µM*	-1.0	-23	3%	-1.9%	-1%	1
CCCC(C)C(=O)NCc1ccc2c(c1)OCO2 (stereo not given)	24%	-0.2	6	-10%	-5.3%	-6%	0
Cc1ncc2c(c1OC(=O)c1ccccc1)COC(C)(C)OC2	5%	2.5	-14	-14%	1.2%	?	-8
CN(C(=O)c1ccc(NC(=O)Cc2cccc(NC(=O)C3CCCN(C(=O)C4CC4)C3)c2)cc1)C1CC1 (stereo not given)	·	·	·	4%	-2.6%	·	-2
CCN1CCN(C(C(=O)NC2CCCCC2)c2ccc(Cl)cc2)CC1 (stereo not given)	5%	0.5	-3	10%	1.0%	0%	-41
CN(C)CCCN(C(=O)c1ccc(S(=O)(=O)N2CCc3ccccc32)cc1)c1nc2ccc(F)cc2s1	?	·	-6	-6%	-0.2%	15%	-17
O=C(Cc1coc2ccc3ccccc3c12)NC1CCCc2ccccc21 (stereo not given)	10%	8.4	2	-37%	-0.3%	19%[15.4 µM]	-6
Cc1ccc(C2(C)NC(=O)N(CC(=O)Nc3c(C)n(C)n(-c4ccccc4)c3=O)C2=O)cc1 (stereo not given)	0%	-0.6	-3	16%	1.8%	3%	-17
CCS(=O)(=O)c1cc([N+](=O)[O-])c(Sc2ccccc2NC(C)=O)s1	0.45µM*	4.1	3	9%	·	14%[15.4 µM]	-14
CS(=O)(=O)N(CC(=O)Nc1cccc([N+](=O)[O-])c1)c1ccccc1F	13%	-1.5	2	-1%	-0.4%	2%	-5
C=CCNc1oc(COc2ccc(C)cc2)nc1C#N	-15%	-0.7	·	6%	0.8%	-1%	-1
Cc1csc(SCC(=O)Nc2c(C)n(C)n(-c3ccccc3)c2=O)n1	20%	-1.1	-1	-3%	1.4%	-7%	-6
O=C(Nc1nc2c(Cl)cccc2s1)c1ccc(Br)o1	14%	1.3	25	-9%	2.2%	-12%	-6
CN(C)S(=O)(=O)c1ccc(C(=O)Nc2ccc(OCC(=O)N3CCOCC3)cc2)cc1	16%	-1.0	10	-3%	-2.6%	-32%	-15
Cc1c(C(=O)N2CCCCC2)c(S(=O)(=O)NCCc2ccc(S(N)(=O)=O)cc2)c(C)n1C	21%	0.0	-2	13%	-1.0%	16%	-2
Brc1ccccc1-c1nnc(COc2ncnc3c2cnn3-c2ccccc2)o1	-7%	8.2	1	?	-7.1%	-49%[inhibitor]	-7
Cc1cnc(NC(=O)C2CC(=O)N(c3cccc(Cl)c3)C2)s1 (stereo not given)	14%	-1.7	-6	-11%	-0.6%	?	-5
Cc1ccc(-c2cc(C(=O)NCc3ccccn3)c3ccccc3n2)cc1	-27%	11	-2	0%	14µM*	28%	-24
O=C(Nc1cc([N+](=O)[O-])ccc1Cl)c1cccnc1	22%	-3.5	6	9%	·	-43%[inhibitor]	-4
O=c1c2c(nc3nc(SCc4ccccc4)[nH]n13)CCC2	6%	-2.3	10	-21%	0.1%	28%	-1
COc1cccc(C(=O)N2CCN(c3ccccn3)CC2)c1	12%	-0.9	-7	7%	-0.3%	13%[15.4 µM]	-4
CC(C)c1ccc(Nc2ccc(C(=O)O)cc2[N+](=O)[O-])cc1	-6%	4.6	2	-20%	-0.5%	-5%[15.4 µM]	-3
CC(C)(O)C#Cc1ccccc1C(=O)NC(CC(N)=O)C(=O)O (stereo not given)	14%	1.6	3	9%	-4.4%	-12%	0
COc1ccc(/C=N\N2CCN(Cc3ccccc3Cl)CC2)cc1	79µM*	1.4	-20	3%	-0.8%	2%	-56
CC(C)(C)c1ccc(/C=C2/SC(N3CCCC3)=NC2=O)cc1	?	5.4	·	-8%	·	-5%[15.4 µM]	-5
Cc1cccc(C)c1OCC(=O)N(Cc1cccs1)C1CCS(=O)(=O)C1 (stereo not given)	10%	-2.3	8	-12%	-2.3%	-30%	-9
CN(C)S(=O)(=O)c1cccc(C(=O)C2=C3SC=C(c4ccccc4)N3CC2)c1	56µM*	19	2	-15%	-2.0%	-59%[inhibitor]	15
COCCSc1nnc(NS(=O)(=O)c2ccc(F)cc2)s1	-8%	2.9	6	-7%	·	-16%	-5
O=C(CSc1nnnn1-c1ccc(F)cc1)c1ccc(O)c(O)c1	2%	0.1	11	-3%	·	11%	8
COc1ccc(/C=N/NC(=O)c2ccc(CN3c4cccc5cccc(c45)S3(=O)=O)cc2)cc1	3%	1.2	7	-21%	0.0%	-5%[15.4 µM]	5
O=[N+]([O-])c1ccc(-c2c(-c3ccccc3)ncc3ccc(F)cc23)cc1	·	·	-14	?	-0.5%	·	4
O=C1NC(=O)C2(CCCCCCC2)N1	·	·	·	7%	·	4%	-5

Additional results.
SMILES	Sfp inh	Menin MLL FP FL	TRPV1 potentiator	gsp antagonist	ClpP mod	gsp agonist	D2 PAM
CN1C(=C2C(=O)OC(C)(C)OC2=O)Sc2ccccc21	10%	1.7	-11	1%	2.1%	-1%	1
CCN(CCCNC(=O)CCC(=O)N1CCOc2ccccc21)Cc1ccccc1	4%	3.2	-11	5%	-2.9%	-32%[inhibitor]	-11
Cc1ccc(C(=O)NC(=C(Cl)Cl)S(=O)(=O)c2ccc(C)cc2)cc1	19%	2.2	-2	-1%	-10%	5%[15.4 µM]	-29
Cc1nc(NC(=O)c2cc3c(s2)CCCCC3)sc1C(=O)N(C)C	-4%	4.1	-18	8%	-1.9%	-36%[inhibitor]	-12
COCCN(C(=O)CSc1n[nH]c(-c2ccccc2)n1)c1c(N)n(CC(C)C)c(=O)[nH]c1=O	·	·	-6	11%	-3.0%	?	-5
COc1ccc(NC(=S)NC(NC(=O)c2cccc3ccccc23)C(Cl)(Cl)Cl)c([N+](=O)[O-])c1 (stereo not given)	-2%	2.8	8	-21%	-2.6%	-1%	-4
COC(=O)Cc1c(C(=O)OC)nnn1-c1ccc(OC(F)(F)F)cc1	?	-1.0	11	9%	·	-9%	-8
C=CCNc1nc(S(=O)Cc2ccc(C)cc2)nc2c1CCCC2 (stereo not given)	6%	-7.3	0	1%	1.6%	-20%	-5
COc1cc(/C=C2\N=C(C)OC2=O)cc(OC)c1OC	6%	3.7	8	-13%	0.6%	1%	-2
O=S(=O)(Nc1ccc(-n2cnnn2)cc1)c1ccc(Cl)s1	·	·	·	-12%	·	19%	-2
CC(C)CC(=O)NC(=S)Nc1cccc(NC(=O)c2ccccc2Cl)c1	-9%	-0.5	-18	-10%	-3.4%	18%	-8
C[C@@H]1COC(=O)[C@H](CC(=O)OC(C)(C)C)C/C=C\C[C@@H](CC(=O)N(CCO)Cc2ccccc2)C(=O)N1	·	·	·	5%	0.2%	-37%	-6
O=C(CSc1nc(O)c(Cc2ccccc2)c(=O)[nH]1)Nc1nnc(SCc2ccccc2)s1	?	5.0	17	-1%	·	-24%	6

An excerpt from above in order of heavy-atom count, smallest number first.
SMILES	Sfp inh	Menin MLL FP FL	TRPV1 potentiator	gsp antagonist	ClpP mod	gsp agonist	D2 PAM
COc1cc(/C=C2\N=C(C)OC2=O)cc(OC)c1OC	6%	3.7	8	-13%	0.6%	1%	-2
COC(=O)Cc1c(C(=O)OC)nnn1-c1ccc(OC(F)(F)F)cc1	?	-1.0	11	9%	·	-9%	-8
COCCN(C(=O)CSc1n[nH]c(-c2ccccc2)n1)c1c(N)n(CC(C)C)c(=O)[nH]c1=O	·	·	-6	11%	-3.0%	?	-5
